Screening data (PubChem)
RE007 growth inh: qHTS Assay for Inhibitors of the HIV-1 protein Vpr; S. pombe RE007 Vpr strain, BacTiter-Glo ATP luminescence, 24 h; control for the full effect not named in the record; Potency, µM (top dose mostly 92.2 µM), inactives show top-dose activity change, negative = less growth; hit rate 0.21% among 360,000; active = well fitted falling curve with a large enough effect; inconclusive = small, poorly fitted or top-dose-only effect; inactive = no such curve, though single readings can be large or run the other way;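 also: % is scaled to controls: 0 for no effect and ±100 for the full control effect; nearly all actives have a fitted effect of over 50% in size; the assay follows cell death caused by Vpr and the record does not say whether a fall means rescue or toxicity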
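Fission yeast strain RE007, carrying one chromosomally integrated HIV-1 vpr copy, was seeded at OD 0.01 in PMG+AL medium with 23 nL pinned compound. After 24 h at 30 °C and 99% humidity, viability was read by BacTiter-Glo luminescence.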
Lassa entry inh: qHTS for Inhibitors of binding or entry into cells for Lassa Virus | Potency, µM (highest dose often 37.9 µM), without a hit: top-dose activity change, negative = inhibition, actives largely listed as inhibitors | Lassa virus pseudotype entry inhibition, cell reporter; control for the full effect not named in the record | hit rate 1.2% among 300,000; active means well fitted inhibition curve with a large enough effect; inconclusive means small, poorly fitted or top-dose-only effect, or effect the other way; inactive means flat fitted curve, though single readings scatter; tested in HEK293 cells; also: % is scaled to controls: 0 for no effect and ±100 for the full control effect; nearly all actives have a fitted effect of over 50% in size; luciferase read-out
MARV entry inh: qHTS for inhibitors of binding or entry into cells for Marburg Virus; Marburg virus pseudotyped entry inhibition, cell reporter; control for the full effect not named in the record; about a third of the inactives were read at about 46 µM; Potency, µM (highest dose often 37.8 µM), for the others: at the top dose activity change, negative = inhibition, actives largely listed as inhibitors; hit rate 1.8% among 300,000; active = well fitted inhibition curve with a large enough effect; inconclusive = small, poorly fitted or top-dose-only effect, or effect the other way; inactive = flat fitted curve, though single readings scatter; tested in HEK293 cells; about a fifth of its hits are not listed in these tables; also: % is scaled to controls: 0 for no effect and ±100 for the full control effect; luciferase read-out
StopGo reporter: High Throughput Screening for Foot and Mouth Disease Virus Antivirals. human cells with a luciferase reporter of 2A StopGo recoding; control for the full effect not named in the record. hit rate 1.2% among 410,000. Potency, µM (top dose mostly 57.9 µM), without a hit: at the top dose signal change, negative = less light; active = well fitted falling curve with a large enough effect; inconclusive = small, poorly fitted or top-dose-only effect; inactive = no such curve, though single readings can be large or run the other way; tested in HEK293T cells; also: % is scaled to controls: 0 for no effect and ±100 for the full control effect; nearly all actives have a fitted effect of over 45% in size; luciferase light after 4 h
Cruzain inh Det: qHTS Assay for Promiscuous and Specific Inhibitors of Cruzain (with detergent); purified cruzain, Z-FR-AMC fluorescence, 0.01% Triton; Potency, µM, inactives show max response, negative = inhibition, hits mostly inhibitors; hit rate 0.43% among 200,000;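 also: plate controls were neutral wells for no effect and buffer without enzyme for full effect; nearly all actives have a fitted effect of over 40% in size; top concentration of the series not given in the record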
Target sequence (P25779 123-467 limits assumed): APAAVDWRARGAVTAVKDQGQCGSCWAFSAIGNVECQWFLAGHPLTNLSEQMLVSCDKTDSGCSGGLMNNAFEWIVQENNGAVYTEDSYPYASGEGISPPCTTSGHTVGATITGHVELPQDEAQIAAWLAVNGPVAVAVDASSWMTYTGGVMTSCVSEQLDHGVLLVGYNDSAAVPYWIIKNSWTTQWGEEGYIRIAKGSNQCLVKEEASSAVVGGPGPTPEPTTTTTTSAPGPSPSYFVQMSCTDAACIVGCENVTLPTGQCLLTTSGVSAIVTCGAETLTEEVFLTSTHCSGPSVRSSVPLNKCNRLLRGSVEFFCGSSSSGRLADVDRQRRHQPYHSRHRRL
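In this qHTS format, compounds are incubated with 1.5 nM cruzain for 15 min at room temperature before 2 uM Z-FR-AMC is added. Release of AMC is followed at 360/450 nm, and progress is taken as the 60 s fluorescence difference.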
Cruzain noTriton: qHTS Assay for Promiscuous and Specific Inhibitors of Cruzain (without detergent) | purified cruzain, Z-FR-AMC fluorescence, no detergent | Potency, µM, for inactives: max response, negative = inhibition, hits mostly inhibitors | hit rate 2.3% among 200,000 | Cruzipain (Trypanosoma cruzi), P25779 | AID 1476, 2009;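 also: plate controls were enzyme without inhibitor for no effect and buffer without enzyme for full effect; nearly all actives have a fitted effect of over 40% in size; top concentration of the series not given in the record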
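Detergent-free condition (0.00005% Triton X-100) in acetate buffer pH 5.5 with DTT. 1.5 nM enzyme and compound were pre-mixed 15 min, then 2 uM Z-FR-AMC substrate added; reaction progress from fluorescence change between first and third reads (60 s).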
NS1 function inh: qHTS Assay for Inhibitors of Influenza NS1 Protein Function | hit rate 0.4% among 270,000 | S. cerevisiae slowed by influenza A NS1, growth recovery by OD600 | Potency, µM (top dose mostly 46.1 µM), inactives show at the top dose activity, positive = more growth; active means well fitted rising curve with a large enough effect; inconclusive means small, poorly fitted or top-dose-only effect; inactive means no such curve, though single readings can be large or run the other way; also: nearly all actives have a fitted effect of over 50% in size
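Growth recovery, yeast-based: influenza A NS1 expressed in S. cerevisiae causes slow growth, and suppressors are detected by OD600. The parent strain without NS1 is used as positive control.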
SARS PLP yeast: qHTS of Yeast-based Assay for SARS-CoV PLP; S. cerevisiae expressing SARS-CoV PLpro, growth rescue; control for the full effect not named in the record; Potency, µM (top dose mostly 32.9 µM), inactives show top-dose activity, positive = growth rescue; hit rate 0.19% among 330,000; AID 485353, 2010; active means well fitted rising curve with a large enough effect; inconclusive means small, poorly fitted or top-dose-only effect; inactive means no such curve, though single readings can be large or run the other way; also: 0% is about no effect; nearly all actives have a fitted effect of over 55% in size; growth read by luminescence after 48 h
* hit, by the source's call; & = joins results of further samples; [ ] = remark or other dose. Unless noted, calls follow the shape of the dose curve; as a rule, active = well fitted curve in the direction sought with a large enough effect; inconclusive = small, poorly fitted or top-dose-only effect, or another doubt; inactive = no such curve, though single readings can be large; an effect the other way counts as inactive or inconclusive. Potency is read from the fitted curve at half-maximal effect. Compounds were not picked by outcome. Share with any hit: about 4.7%.

Results for CCC(=O)NC(=S)Nc1ccc(NC(=O)COc2ccccc2)cc1 ?
Lassa entry inh: -6%; MARV entry inh: inconclusive; StopGo reporter: 27%; Cruzain inh Det: 0.1%; Cruzain noTriton: -1%; NS1 function inh: 26%; SARS PLP yeast: 3%

How did CC(C)(C)OC(=O)N1CCC[C@H]1c1nnc(SCc2ccc(Cl)cc2Cl)o1 do in these assays?
RE007 growth inh: 15%; Lassa entry inh: inconclusive; MARV entry inh: 8.9µM*; StopGo reporter: 40µM*; Cruzain inh Det: -1.3%; Cruzain noTriton: inconclusive

How did C1CCN=C(Nc2nc3c(s2)CCCC3)CC1 do in these assays?
RE007 growth inh: -17%; Lassa entry inh: 3%; MARV entry inh: inconclusive; StopGo reporter: 38%[activator]; Cruzain inh Det: 0.1%; Cruzain noTriton: -3%; NS1 function inh: -4%; SARS PLP yeast: 1%

Results for COc1ccc(Nc2nc(N)c([N+](=O)[O-])c(NCc3ccccc3)n2)cc1 ?
RE007 growth inh: 5%; StopGo reporter: -20%; NS1 function inh: 4%; SARS PLP yeast: 1%

What do the screens show for `COC(=O)Cn1cc(S(=O)(=O)NCc2ccc(C)cc2)c2cc([N+](=O)[O-])ccc21`?
RE007 growth inh: 11%; StopGo reporter: 33%[activator]; NS1 function inh: 3%; SARS PLP yeast: 1%

What do the screens show for `CC(=O)/C(C=Nc1noc(C)c1Br)=C(\C)O`?
RE007 growth inh: 7%; StopGo reporter: 15%; NS1 function inh: -2%; SARS PLP yeast: 0%

How did Cc1cc(C)n(CC(=O)NC2CCCc3c2cnn3-c2ccccc2F)n1 (stereo unspecified) do in these assays?
RE007 growth inh: -2%; StopGo reporter: -15%; NS1 function inh: 9%; SARS PLP yeast: 1%

What do the screens show for `CCOCCCNC(=S)N1CCCC(c2nc3ccc(C)cc3[nH]2)C1` (stereo unspecified)?
RE007 growth inh: 7%; StopGo reporter: -2%; NS1 function inh: 0%; SARS PLP yeast: 0%

How did CC1(C)COC(=S)N1CCC#N do in these assays?
RE007 growth inh: -13%; Lassa entry inh: 4%; MARV entry inh: 0%; StopGo reporter: -1%

Results for CCOC(=O)c1ccc(-c2ccc(/C=C(\C#N)C(=O)Nc3cccc(C)c3)o2)cc1 ?
Lassa entry inh: 9%[46.1 µM]; StopGo reporter: -9%; Cruzain inh Det: -1.3%; Cruzain noTriton: 8%

How did Cc1ccc(Nc2nc(-c3ccncc3)cs2)cc1 do in these assays?
RE007 growth inh: -1%; Lassa entry inh: -11%; MARV entry inh: inconclusive; StopGo reporter: 42%[activator]; NS1 function inh: -7%; SARS PLP yeast: -2%

What do the screens show for `COc1ccc(Br)cc1CNC(=O)C1CCCCN1S(=O)(=O)c1ccc(F)cc1` (stereo unspecified)?
Lassa entry inh: 12%[46.1 µM]; StopGo reporter: 11%; Cruzain inh Det: -3.4%; Cruzain noTriton: -3%

Results for C=CCOn1c(=O)c(C)[n+]([O-])c2ccccc21 ?
RE007 growth inh: 21%; Lassa entry inh: 14%; MARV entry inh: 5%; StopGo reporter: -6%; Cruzain inh Det: -2.4%; Cruzain noTriton: -5%; NS1 function inh: 0%; SARS PLP yeast: -2%

Results for CCCN1C(=O)/C(=c2\sc3nc(=O)c(Cc4ccc(C)cc4)nn3c2=O)c2ccccc21 ?
RE007 growth inh: -1%; Lassa entry inh: inconclusive; MARV entry inh: 1%[46.1 µM]; StopGo reporter: -12%; NS1 function inh: 12%; SARS PLP yeast: 2%

How did Cc1noc(C)c1S(=O)(=O)Nc1cccc(CO)c1 do in these assays?
RE007 growth inh: -10%; StopGo reporter: -9%; NS1 function inh: 2%; SARS PLP yeast: 1%

Results for Cc1cc(C2(c3ccc(O)c(C)c3)OC(=O)c3ccccc32)ccc1O ?
RE007 growth inh: -18%; Lassa entry inh: -3%; MARV entry inh: inconclusive; StopGo reporter: 10%; Cruzain inh Det: -10%; Cruzain noTriton: -1%; NS1 function inh: -14%; SARS PLP yeast: -2%

What do the screens show for `O=C(CCNC(=O)N1CCn2c1nc1ccccc12)NCc1ccccc1Cl`?
RE007 growth inh: -3%; StopGo reporter: -19%; NS1 function inh: -20%; SARS PLP yeast: 4%

What do the screens show for `CCCn1c(NC(=O)c2ccccc2Br)nc2ccccc21`?
RE007 growth inh: 2%; Lassa entry inh: inconclusive; MARV entry inh: inconclusive; StopGo reporter: 60%[activator]; SARS PLP yeast: -1%

What do the screens show for `CC(=NCCCn1ccnc1)c1c(-c2ccccc2)[nH]n(-c2nc3ccccc3s2)c1=O`?
RE007 growth inh: 0%; Lassa entry inh: -25%; MARV entry inh: inconclusive; StopGo reporter: -12%; Cruzain inh Det: -2.6%; Cruzain noTriton: -26%; NS1 function inh: 20%; SARS PLP yeast: 3%

Results for COc1ccc(N(C)C(=O)c2cn(C)c(=O)c3cc(OC)c(OC)cc23)cc1 ?
RE007 growth inh: -12%; Lassa entry inh: 3%&25%[46.1 µM]; MARV entry inh: 8%&3%[46.1 µM]; StopGo reporter: -7%&-2%; Cruzain inh Det: -1.3%; Cruzain noTriton: -4%; NS1 function inh: 2%; SARS PLP yeast: -1%

How did O=C(CSc1nnc(CNC(=O)c2ccco2)o1)Nc1ccc(F)cc1 do in these assays?
RE007 growth inh: -4%; Lassa entry inh: 26%[46.1 µM]; MARV entry inh: -19%[46.1 µM]; StopGo reporter: 3%; NS1 function inh: 4%; SARS PLP yeast: -2%

Results for CCC1(CC)Cc2ccccc2-c2nc(CN3CCOCC3)[nH]c(=O)c21 ?
RE007 growth inh: -15%; Lassa entry inh: -22%; MARV entry inh: -3%; StopGo reporter: -23%; Cruzain inh Det: -2.5%; Cruzain noTriton: inconclusive; NS1 function inh: inconclusive; SARS PLP yeast: -10%

Results for CCN1C(=O)c2ccccc2Sc2ccc(NC(=O)Nc3ccc(C(C)=O)cc3)cc21 ?
Lassa entry inh: 18%[46.1 µM]; MARV entry inh: -25%[46.1 µM]; StopGo reporter: -14%; Cruzain inh Det: -5.2%; Cruzain noTriton: 20%

Results for CCC(C)NC(=O)C1CCC(CNS(=O)(=O)c2ccc3c(c2)CC(C)N3C(C)=O)CC1 (stereo unspecified) ?
RE007 growth inh: 7%; Lassa entry inh: -6%[46.1 µM]; MARV entry inh: inconclusive; StopGo reporter: 6%; NS1 function inh: -9%; SARS PLP yeast: 0%

How did Cc1ccc(-c2nc3ccccc3[nH]2)cc1NC(=O)c1sc2ccccc2c1Cl do in these assays?
RE007 growth inh: 7%; Lassa entry inh: -4%; MARV entry inh: -20%; StopGo reporter: 11%; Cruzain inh Det: 6.6%; Cruzain noTriton: 7.9µM*; NS1 function inh: 7%; SARS PLP yeast: -9%

How did CCOc1ccc(CNC(=O)CSc2c3c(nc4ccc(Cl)cc24)CCCC3)cc1 do in these assays?
Lassa entry inh: 13%[46.1 µM]; MARV entry inh: inconclusive; StopGo reporter: -22%; Cruzain inh Det: -7.9%; Cruzain noTriton: 8%

How did Clc1nc2ccccc2cc1/C=N/Nc1nc2ccccc2[nH]1 do in these assays?
RE007 growth inh: 1%; Lassa entry inh: inconclusive; MARV entry inh: -6%; StopGo reporter: 4%; Cruzain inh Det: 28µM*; Cruzain noTriton: inconclusive; NS1 function inh: 4%; SARS PLP yeast: -11%

How did CS(=O)(=O)N1CCC(NC(=O)Cc2ccccc2)CC1 do in these assays?
RE007 growth inh: 7%; Lassa entry inh: 19%; MARV entry inh: 7%; StopGo reporter: 45%[activator]; Cruzain inh Det: 6.6%; Cruzain noTriton: 1%; NS1 function inh: 4%; SARS PLP yeast: 2%

Results for Nc1nnc(SCC(=O)NC2CCCc3ccccc32)s1 (stereo unspecified) ?
RE007 growth inh: 8%; StopGo reporter: -8%; NS1 function inh: 0%; SARS PLP yeast: 0%

How did CCN1CCN(C(=O)CN(CC)S(=O)(=O)c2ccc(F)cc2)CC1 do in these assays?
RE007 growth inh: -16%; Lassa entry inh: 14%; MARV entry inh: 11%; StopGo reporter: -17%; NS1 function inh: 7%; SARS PLP yeast: -4%

What do the screens show for `CCc1ccc2[nH]c(=O)c(CN(CCN(C)C)C(=O)Nc3ccccc3)cc2c1`?
RE007 growth inh: -17%; Lassa entry inh: -9%; MARV entry inh: inconclusive; StopGo reporter: -17%; Cruzain inh Det: -2.2%; Cruzain noTriton: 1%; NS1 function inh: 3%; SARS PLP yeast: -13%

What do the screens show for `Cc1cccc2cc(C#N)c(SCC(=O)Nc3ccccc3N3CCOCC3)nc12`?
RE007 growth inh: -5%; Lassa entry inh: 11%; MARV entry inh: -9%; StopGo reporter: -18%; Cruzain inh Det: -6.9%; Cruzain noTriton: -8%; NS1 function inh: inconclusive; SARS PLP yeast: 7%

What do the screens show for `O=C(Nc1cccc2c1C(=O)NC2=O)c1cccc(N2C(=O)CCC2=O)c1`?
RE007 growth inh: -3%; StopGo reporter: 13%; NS1 function inh: 6%; SARS PLP yeast: -1%

Results for COc1cccc(NC(=O)c2sc(NC(=O)c3ccncc3)nc2C)c1 ?
RE007 growth inh: 0%; MARV entry inh: 6%; StopGo reporter: -21%; NS1 function inh: 0%; SARS PLP yeast: 1%

How did Cc1ccc(NC(=O)CSCC#N)cc1Cl do in these assays?
RE007 growth inh: -5%; Lassa entry inh: -7%; MARV entry inh: 1%; StopGo reporter: -17%; Cruzain inh Det: -5.7%; Cruzain noTriton: 7%; NS1 function inh: -17%; SARS PLP yeast: 29%
